ClpP mod – qHTS Assay for Activators of ClpP. Potency, µM (highest dose often 57.5 µM), for the others: at the top dose activity change, negative = active. hit rate 1.9% among 340,000. purified B. subtilis ClpP, FRET peptide cleavage, 20 min. ATP-dependent Clp protease proteolytic subunit (Bacillus subtilis (strain 168)), P80244. AID 651965, 2013; active = well fitted falling curve with a large enough effect; inconclusive = small, poorly fitted or top-dose-only effect; inactive = no such curve, though single readings can be large or run the other way; also: potency is read from the fitted curve at half-maximal effect; the source files actives as falling curves though it sought activators and does not explain the sign; nearly all actives have a fitted effect of over 65% in size; many hits overshoot -100%
Target sequence (P80244 whole entry, looked up): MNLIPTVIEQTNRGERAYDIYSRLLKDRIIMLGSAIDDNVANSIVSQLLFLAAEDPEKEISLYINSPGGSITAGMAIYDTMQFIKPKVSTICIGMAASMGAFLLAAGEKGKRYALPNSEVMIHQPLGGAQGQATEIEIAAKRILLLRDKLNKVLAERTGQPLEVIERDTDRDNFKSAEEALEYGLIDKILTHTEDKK
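ClpP 10 microg/mL final, pH 8 Tris/KCl buffer with BSA, glycerol, Tween-20; compound pinned in; FRET-FV substrate; RT 20 min; Ex320/Em430; ΔFRET vs ADEP 5.8 microM, DMSO, no enzyme.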
TRPV1 potentiator – enhances activation of the human vanilloid receptor TRPV1. hit rate 0.02% among 320,000. TRPV1-expressing cells, Fluo-8 calcium influx, capsaicin EC20 potentiation; host cell line not named in the record; control for the full effect not named in the record. Q8NER1. potentiation, % at 8.33 µM; active means potentiation above 80%; inconclusive means 30% to 80%; inactive means below 30%; also: 0% is about no effect
Target sequence (Q8NER1 whole entry, looked up): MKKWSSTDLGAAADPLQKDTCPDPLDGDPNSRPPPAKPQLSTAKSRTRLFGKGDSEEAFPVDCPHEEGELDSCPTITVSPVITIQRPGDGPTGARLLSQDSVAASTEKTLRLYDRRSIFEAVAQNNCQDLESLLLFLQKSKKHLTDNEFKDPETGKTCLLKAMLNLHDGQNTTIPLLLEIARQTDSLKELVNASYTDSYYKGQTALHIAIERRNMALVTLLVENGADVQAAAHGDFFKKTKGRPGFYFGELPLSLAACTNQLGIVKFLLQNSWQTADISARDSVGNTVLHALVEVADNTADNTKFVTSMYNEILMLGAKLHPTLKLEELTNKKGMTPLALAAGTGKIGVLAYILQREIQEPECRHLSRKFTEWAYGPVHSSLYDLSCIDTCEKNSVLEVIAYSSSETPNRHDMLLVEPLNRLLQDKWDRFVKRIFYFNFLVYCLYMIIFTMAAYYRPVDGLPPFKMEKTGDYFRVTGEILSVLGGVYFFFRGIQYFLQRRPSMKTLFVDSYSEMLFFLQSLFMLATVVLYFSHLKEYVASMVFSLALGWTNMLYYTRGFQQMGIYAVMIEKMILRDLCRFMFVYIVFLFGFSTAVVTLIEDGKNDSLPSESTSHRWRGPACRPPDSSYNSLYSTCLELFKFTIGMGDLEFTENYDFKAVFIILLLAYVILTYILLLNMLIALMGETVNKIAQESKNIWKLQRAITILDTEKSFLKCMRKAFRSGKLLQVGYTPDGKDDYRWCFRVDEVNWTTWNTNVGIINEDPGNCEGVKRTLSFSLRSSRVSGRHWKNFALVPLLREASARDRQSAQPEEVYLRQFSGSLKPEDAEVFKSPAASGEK
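Cells expressing TRPV1 were dye-loaded with Fluo-8 and read kinetically: 10 s baseline, 3 min after compound (agonist portion), then 2 min after EC20 capsaicin (allosteric enhancer portion). Calcium-bound dye fluorescence at 480/520 nm.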
Sfp PPTase inh – inhibitors of Bacillus subtilis Sfp phosphopantetheinyl transferase; Biochemical Sfp PPTase activity, qHTS; Potency, µM, without a hit: max response, negative = inhibition, most hits filed as inhibitors; hit rate 3.5% among 310,000; AID 1490; active = well fitted inhibition curve with a large enough effect; inconclusive = small, poorly fitted or top-dose-only effect, or another doubt; inactive = no such curve, though single readings can be large or run the other way;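 also: the enzyme is Sfp with the accession as filed and its product quenches rhodamine fluorescence; potency is read from the fitted curve at half-maximal effect; 0% = enzyme reaction without inhibitor and -100% = no enzyme wells; top concentration of the series not given in the record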
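Reaction rates are the 30-min fluorescence difference (ex 525, em 598 nm) in wells containing 15 nM Sfp, 5 uM rhodamine-CoA and 12.5 uM BHQ-2-YbbR at pH 7.6 with 10 mM MgCl2.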
TRPML1 inh – human mucolipin-1 channel inhibition; AID 624415; activity change, negative = inhibition, % (test concentration not listed); Q9GZU1; hit rate 0.02% among 390,000; TRPML1-inducible cells, Ca2+ dye fluorescence, FDSS; stronger effect = lower value; inhibition of EC80 agonist-evoked calcium signal; in the data active means activity change below about -50%; inconclusive means about -30% to -50%; inactive means above about -30%;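 also: stimulus is agonist 54-4 at its EC80 concentration; % is scaled to controls: 0 for no effect and ±100 for the full control effect; compound concentration not given in the record; the text of the record puts the active cut at -80%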
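Tet-induced TRPML1-DL cells loaded with Ca8 no-wash calcium dye were read kinetically on FDSS. Compound addition was followed by EC80 agonist 54-4 (4 uM final); inhibition was read over 110 s.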
PINK1 modulator – modulators of PINK1 expression. hit rate 0.2% among 410,000. Potency, µM (doses to about 76.6 µM), for inactives: at the highest dose activation (PINK1 increase), most hits filed as activators. AID 624263. PINK1 immunofluorescence, high-content cytometry, 24 h; active = well fitted activation curve with a large enough effect; inconclusive = small, poorly fitted or top-dose-only effect; inactive = flat fitted curve, though single readings scatter; cell line not stated here;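 also: potency is read from the fitted curve at half-maximal effect; % of control where 0% means no effect; nearly all actives have a fitted effect of over 65% in size; a mitochondrial uncoupler was the plate control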
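Decision-based qHTS: stable cells, 24 h exposure to five compound concentrations, CCCP as control. Fixed cells stained for PINK1 plus nuclear, mitochondrial and cell markers, cytometer read.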
Menin MLL FP FL – menin-MLL binding inhibition, fluorescein peptide; Fluorescence polarization, fluorescein-MLL peptide displacement from menin; FP activity change, % at 61.4 µM; 290,000 tested, under 10 active; AID 1766; inconclusive = falling polarisation curve, or a change in total fluorescence; inactive = total fluorescence flat and polarisation flat or rising; no compound was filed as active; the % refers to the polarisation; negative = inhibition;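 also: % of control where 0% means no effect; inhibitors lower the polarisation; unlabelled MLL peptide was the positive control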
TRPML1 ag – human mucolipin-1 channel agonism; Q9GZU1; AID 624414; TRPML1-expressing cells, Ca2+ dye fluorescence, FDSS; host cell line not named in the record; reference of the full effect not given here; hit rate 0.12% among 410,000; activation, % (no concentration beside the values); in the data active = activation above about 50%; inconclusive = about 30% to 50%; inactive = below about 30%; also: 0% is about no effect; the text of the record puts the active cut at 80%
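Tet-induced TRPML1-DL cells, 1,500 per well, cultured overnight, were loaded with a no-wash Ca2+ dye for 45–90 min. Calcium fluorescence was recorded on the FDSS for 110 s after compound addition, before the EC80 agonist (4 uM 54-4) was added.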
* = called active by the depositor; ? = inconclusive; · = no result given; & = joins results of further samples; [ ] = another dose, or the depositor's remark.

SMILES | ClpP mod | TRPV1 potentiator | Sfp PPTase inh | TRPML1 inh | PINK1 modulator | Menin MLL FP FL | TRPML1 ag
O=C(CSc1nnc(CNc2ccc(F)cc2)n1Cc1ccccc1)NCc1ccccc1 | -0.5% | -1 | 7% | 12 | 0.2% | 0.4 | 4.6
CC(C)(C)C(=O)Nc1ccc(-c2csnn2)cc1 | -0.2% | -25 | 1% | 1 | 2.4% | 1.0 | 3.7
CC(CN1CCOCC1)OC(=O)c1ccccc1 (configuration not stated) | -7.0% | · | 14% | -9 | 1.0% | -2.2 | -0.7
COc1ccc(Cn2nnnc2C(c2ccccc2)N2CCN(c3ccccc3)CC2)cc1 (configuration not stated) | -0.5% | · | · | · | 0.2% | · | -0.7
COc1ccc(/C=N/NC(=O)c2ccco2)cc1OCc1ccccc1 | 1.3% | -14 | -17% | 12 | 7.4% | 2.2 | 0.3
Cc1ccnc2nc(C(=O)OCCOc3cccc(Br)c3)nn12 | -2.9% | 1 | 17% | 6 | -1.1% | 1.6 | 2.2
C/C(=N\NC(=O)c1c[nH]c2ccccc12)c1ccc(C)o1 | -0.1% | 6 | -5% | -15 | -6.0%[38.3 µM] | 0.4 | -0.6
COc1ccccc1-c1c(NC(=O)c2ccco2)n(C)c2ccccc2c1=O | · | -10 | 13% | -18 | 2.4% | 3.0 | -1.1
COc1cc2c(cc1OC)CN(C(=O)c1ccc(S(=O)(=O)N3CCCCCC3)cc1)CC2 | -7.4% | -19 | 15% | -16 | 0.5% | 4.7 | 1.4
CC(=O)NC(Cc1cccc(F)c1)C(=O)NC1CCN(c2ncccc2[N+](=O)[O-])CC1 (configuration not stated) | -1.3% | 4 | 10% | -4 | 0.6% | -4.9 | 0.2
O=C(CCCNS(=O)(=O)c1ccccc1)NCc1ccco1 | -1.1% | -6 | 1% | 12 | · | 0.6 | -0.2
CCOC(=O)[C@@H]1[C@H]2COc3ccccc3[C@H]2N2C(=O)N(c3ccc(C)cc3)C(=O)[C@]12C | 0.6% | -12 | 5% | -6 | 1.1% | -4.0 | 1.0
COc1ccccc1N1CCN(C(=O)C2CCCO2)CC1 (configuration not stated) | 0.4% | -4 | ? | 0 | -1.9%[38.3 µM] | 0.2 | -0.5
CCN(CC)CCN(C(=O)c1ccc2ncsc2c1)c1nc2cc3c(cc2s1)OCO3 | -1.3% | -10 | 35µM* | 1 | -0.7% | 0.0 | -0.1
COc1cccc(CNC(=O)Cn2cc([N+](=O)[O-])cn2)c1 | -4.9% | 1 | 15% | 1 | -0.6% | -1.4 | 0.2
CCCC(=O)OCCNc1cc(Sc2nccn2C)c2nonc2c1[N+](=O)[O-] | 1.5% | -7 | 35µM* | 17 | 1.4% | 2.2 | 4.0
Cc1ccc(/C=C2\OC(=O)c3ccccc32)cc1 | 28µM* | -7 | 2% | -5 | 6.1%[38.3 µM] | 2.8 | -0.6
CCC1=C(OC(=O)N(CC)CC)N2C(=O)OC(=NCCc3c[nH]c4ccccc34)[C@]2(C)[C@H]2C1=CC[C@H]1C(=O)N(CC(=O)OC)C(=O)[C@H]12 | -0.9% | -14 | 17%&-1% | -10 | 1.9% | -2.1&2.7 | -0.5
Clc1cccc(CNc2ccn3nc(-c4ccccc4Cl)cc3n2)c1 | 3.8% | · | · | -26 | 22% | · | -0.7
COC(=O)CCN(c1ccccc1)S(=O)(=O)c1cc(-c2cc(C)no2)ccc1OC | 0.1% | 12 | 5% | 30&3 | 5.4%&1.5% | 3.7 | 1.5&-0.2
Cc1c(OCC(=O)OC(C)(C)C)ccc2c3c(c(=O)oc12)CCC3 | 28µM* | -12 | -15% | -9 | -1.7% | 1.8 | 0.5
O=C(CN1C(=O)NC2(CCCCCC2)C1=O)N1CCN(c2ccc(F)cc2)CC1 | -2.6% | 0 | · | 0 | 0.8% | · | -0.4
CC(=O)c1cccc(NC(=O)CSc2ccc(-c3ccc4c(c3)OCO4)nn2)c1 | 1.8% | -1 | ? | -16 | 3.5% | -0.1 | 1.1
COc1ccc(S(=O)(=O)n2nc(C)c(S(=O)(=O)N3CCCCC3)c2C)cc1 | 1.6% | · | · | 11 | 0.8% | · | 0.1
Cc1nnsc1NC(=O)OCCCl | 1.6% | -2 | 12% | 3 | 3.5% | 0.4 | -0.4
CCOCC(=O)N1CCN(c2ccc(F)cc2)CC1 | -4.2% | 2 | 8% | 3 | 0.9% | 2.7 | -0.1
Clc1ccc(OCc2nnc(-c3ccccc3Br)o2)c(Cl)c1 | -2.1% | -1 | -7% | -22 | 5.2%[38.3 µM] | 1.3 | 4.6
C=CCN(CC=C)C(=S)NC(=O)c1ccc([N+](=O)[O-])cc1 | 1.6% | ? | 1% | -2 | -1.1% | 1.8 | -0.3
Cc1cccc(Nc2c([N+](=O)[O-])c(=O)n(C)c3ccccc23)c1 | -0.1% | 0 | 5% | -2 | 0.8% | -7.1 | -0.3
CCOc1ccc(-c2nn3c(-c4cc(-c5ccccc5)n[nH]4)nnc3s2)cc1 | -23%&3.2% | · | · | · | 6.7%&1.1% | · | -0.4&-1.0
CCOC(=O)CSC1=C(C#N)C(c2ccc(C)s2)CC(=O)N1 (configuration not stated) | 3.5% | · | 12% | 20 | 17%[38.3 µM] | 0.7 | 0.8
Cc1ccc(NC(=O)c2cc(=O)c3ccccc3o2)c(C)c1 | 0.6% | -32 | -6% | -7 | -2.4% | -1.7 | 0.1
CCOC(=O)/C(=N\Nc1ncnc2ccccc12)c1ccc(C)cc1 | · | -3 | -3% | -9 | -3.3% | 6.7 | 1.7
Cc1cc(C(=O)CN2C(=O)NC3(CCC(C)CC3)C2=O)c(C)n1C (configuration not stated) | -6.7% | -9 | 22% | -9 | 0.3% | -2.6 | 0.6
CCN1CCc2c(sc(N)c2C#N)C1 | 28µM* | -11 | -18% | -2 | 1.1% | ? | -0.4
CCN(CC(=O)Nc1ccc(NC(C)=O)cc1)C(=O)Cc1c(Cl)cccc1Cl | 0.7% | -1 | 17% | 2 | 1.2% | · | 1.3
Cc1ccc(CS(=O)(=O)CCC(=O)NCCCN2CCCC2=O)cc1 | -0.4% | -2 | 1% | 6 | 0.0% | 1.5 | -0.3
CCOc1cccc(N(C(=O)c2ccco2)C(C(=O)NC2CCCC2)c2cccnc2)c1 (configuration not stated) | · | -2 | -1% | -6 | 1.2% | -8.2 | 1.8
COc1cc(C(=S)N2CCOCC2)cc(OC)c1OC(=O)c1cc([N+](=O)[O-])cc([N+](=O)[O-])c1 | -0.8% | 15 | 4% | 31 | 0.6% | 0.2 | -0.5
CC(=O)c1ccc(Nc2nc(C(N)C(C)C)cs2)cc1 (configuration not stated) | -12% | · | · | · | 0.0% | · | 0.4
O=C(COc1ccc(Cl)cc1)NCc1nnc(SCC(=O)N2CCCCCC2)o1 | 0.6% | -8 | 13% | -9 | 1.1% | -0.6 | 1.1
Cc1ccc(S(=O)(=O)N2CCN(C(=O)c3ccco3)CC2)c(C)c1 | -0.7% | 1 | -2% | · | -1.0% | -2.6 | ·
COc1cc(CN2CCC(C(=O)N3CCC(C)CC3)CC2)cc(Br)c1O | -1.9% | 8 | -16% | 1 | 0.0% | 3.3 | 0.0
COC(=O)c1ccccc1NC(=O)c1sc(Cl)nc1C | · | -13 | 4% | 7 | 0.1% | -1.2 | 1.0
COc1ccc(C2c3cc(OC)c(OC)cc3CCN2C(=O)c2ccccc2Br)cc1OC (configuration not stated) | -2.5% | 14 | -12% | -1 | 3.5% | 0.8 | 1.8
Cc1oc(-c2ccc(Cl)cc2)nc1CN1CCCC(C(=O)NCc2ccccn2)C1 (configuration not stated) | -1.1% | 8 | 7% | 14 | -0.5% | -1.0 | 1.4
COc1ccc(N(CC(=O)NCCc2ccccc2)S(=O)(=O)c2ccc(OC)c(OC)c2)cc1 | -2.0% | · | · | -14 | 2.9% | · | -0.3
COc1ccc2c(CC(=O)Nc3ccccc3OC)coc2c1 | -0.8% | 11 | -4% | 1 | 0.4% | -3.7 | 1.6
Nc1ccn([C@@H]2O[C@H](CNC(=O)[C@H]3CCC(=O)N3)[C@@H](O)[C@H]2O)c(=O)n1 | 0.2% | · | · | 10 | 3.9% | · | -0.5
CC(=O)OCCn1c([N+](=O)[O-])cnc1C=[N+]([O-])C1CCCCC1 | -0.4% | · | · | 5 | 2.3% | · | -0.4
The list goes on.
SMILES | ClpP mod | TRPV1 potentiator | Sfp PPTase inh | TRPML1 inh | PINK1 modulator | Menin MLL FP FL | TRPML1 ag
O=C(O)c1cccc(-c2ccc(/C=C3/SC(=Nc4ccccc4)N(Cc4cccnc4)C3=O)o2)c1 | -4.4% | -33 | 50µM* | -14 | -0.9% | ? | -0.9
COc1ccc(CNc2ncnc3ccc(-c4cccnc4)cc23)c(OC)c1 | · | · | 7% | · | 0.6% | -0.2 | ·
CC(O)c1cccc(-c2ccc(CN3C[C@]4(CO)O[C@@H](CO)C[C@@H]4S3(=O)=O)cc2)c1 (some centres not stated) | 0.1% | · | · | 19 | -1.2% | · | -0.5
COc1ccc(CNC(=O)c2cnc(N3CCCC3)nc2C)c(OC)c1 | -25% | · | · | -6 | 0.1% | · | 1.5
CN(CC(=O)Nc1cccc(Cl)c1)S(=O)(=O)c1ccc2[nH]c(=O)oc2c1 | -2.5% | -9 | -4% | 4 | -1.4% | 1.2 | 0.1

Six compounds out of the list, sorted by number of heavy atoms, largest number first.
SMILES | ClpP mod | TRPV1 potentiator | Sfp PPTase inh | TRPML1 inh | PINK1 modulator | Menin MLL FP FL | TRPML1 ag
O=C(O)c1cccc(-c2ccc(/C=C3/SC(=Nc4ccccc4)N(Cc4cccnc4)C3=O)o2)c1 | -4.4% | -33 | 50µM* | -14 | -0.9% | ? | -0.9
COc1ccc(N(CC(=O)NCCc2ccccc2)S(=O)(=O)c2ccc(OC)c(OC)c2)cc1 | -2.0% | · | · | -14 | 2.9% | · | -0.3
CC(O)c1cccc(-c2ccc(CN3C[C@]4(CO)O[C@@H](CO)C[C@@H]4S3(=O)=O)cc2)c1 (some centres not stated) | 0.1% | · | · | 19 | -1.2% | · | -0.5
COc1ccc(CNC(=O)c2cnc(N3CCCC3)nc2C)c(OC)c1 | -25% | · | · | -6 | 0.1% | · | 1.5
Nc1ccn([C@@H]2O[C@H](CNC(=O)[C@H]3CCC(=O)N3)[C@@H](O)[C@H]2O)c(=O)n1 | 0.2% | · | · | 10 | 3.9% | · | -0.5
COc1ccc2c(CC(=O)Nc3ccccc3OC)coc2c1 | -0.8% | 11 | -4% | 1 | 0.4% | -3.7 | 1.6

Source: PubChem
